# HNF4A DNA FP – change in binding of human HNF4 alpha to DNA. P41235. HNF4a-FITC DNA binding, fluorescence polarization, 1 h. activity change, % at 10 µM. 360,000 compounds, 0.3% hits. AID 1224865; in the data active = activity change above about 30%, passing the limit was not always enough;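 note: controls were the assay level and a saturating level of protein; the project sought stronger binding though the title names inhibitors; some compounds called inactive have numbers as strong as hits; positive values seem to mean higher polarization but the record does not say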
# Target sequence (P41235 whole entry, looked up): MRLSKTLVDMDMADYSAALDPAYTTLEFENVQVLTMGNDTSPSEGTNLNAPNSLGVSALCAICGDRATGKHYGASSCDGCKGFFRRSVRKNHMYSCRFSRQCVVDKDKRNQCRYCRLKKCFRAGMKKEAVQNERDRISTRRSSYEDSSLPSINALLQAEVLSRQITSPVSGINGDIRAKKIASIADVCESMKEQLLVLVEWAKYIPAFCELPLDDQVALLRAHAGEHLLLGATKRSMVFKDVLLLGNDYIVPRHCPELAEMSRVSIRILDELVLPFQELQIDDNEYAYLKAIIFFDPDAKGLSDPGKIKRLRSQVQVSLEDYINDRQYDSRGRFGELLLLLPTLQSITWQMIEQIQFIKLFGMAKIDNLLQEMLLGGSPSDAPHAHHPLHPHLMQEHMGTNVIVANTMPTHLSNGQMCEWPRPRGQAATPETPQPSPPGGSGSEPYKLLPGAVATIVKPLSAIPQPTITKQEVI
# Vif A3G – HIV-1 Vif–A3G interaction blockers – biochemical, TR-FRET, GST-Vif 1-94, biotin-A3G peptide, dose response retest, primary screen (AID 1117319). TR-FRET GST-Vif / biotin-A3G peptide binding; higher % means a stronger effect; test concentration not given here; strong numbers were not always called active. inhibition, %, or IC50 in µM where a hit was titrated. 260,000 compounds, 0.57% hits;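 active = above the screen mean plus three standard deviations and confirmed in dose response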;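 note: Vif residues 1-94 fused to GST binding biotinylated APOBEC3G peptide 110-148; 0% = full assay without inhibitor and 100% = GST in place of GST-Vif; retest series ran down from 100 µM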
# * = called active by the depositor. A portion of the library; rates above refer to the full screens.
HNF4A DNA FP | Vif A3G | mol
5.8 | -6% | CCC(C)C(NC(=O)c1ccccc1)C(=O)N1CCN(C(=O)c2ccccc2)CC1 (stereo unspecified)
2.1 | -2% | Cc1ccc(NS(=O)(=O)c2ccc(-n3cccn3)cc2)c(Cl)c1
8.1 | -22% | Nc1nc(N)c2cc(Sc3ccc(Cl)cc3)ccc2n1
8.4 | 2% | Cc1cccc(-c2ccc3[nH]c4c(c3c2)CCN2C[C@@H]([C@H](C)O)[C@@H](N(C)C(=O)NC3CCCCC3)C[C@@H]42)c1
-3.0 | 1% | O=C(CNC(=O)c1ccc(Br)cc1)OC1CCOC1=O (stereo unspecified)
1.7 | -4% | O=C(CCNC(=O)C1CCN(S(=O)(=O)c2ccc(F)cc2)CC1)NCc1ccccn1
1.7 | -12% | CCCN(C(=O)CSc1nnc(-c2ccncc2)n1CCC)c1c(N)n(Cc2ccccc2)c(=O)[nH]c1=O
1.4 | -1% | COc1ccc2c(CN3CCN(Cc4ccccc4)CC3)cc(=O)oc2c1
0.5 | -1% | CC(C)NC(=O)Nc1ccc2c(c1)C(=O)N([C@@H](C)CO)C[C@@H](C)[C@H](CN(C)Cc1ccccc1)OCCCC[C@H](C)O2
2.5 | -4% | COc1ccc([C@H]2CN(Cc3ccccc3)C(=O)[C@@H]2CC(=O)Nc2ccccc2)cc1
-1.5 | -2% | COc1ccc(-c2ccc3c(c2)O[C@@H](CN(C)C(=O)c2ccccc2F)[C@@H](C)CN([C@@H](C)CO)S3(=O)=O)cc1
0.5 | -4% | C[C@H]1CN([C@@H](C)CO)C(=O)c2cc(C#Cc3ccccn3)cnc2O[C@@H]1CN(C)Cc1ccccc1
-1.8 | -6% | C[C@@H]1CNC(=O)c2c(C(=O)NCc3ccc(CNC(=O)OC(C)(C)C)cc3)ncn21
0.0 | -4% | COc1ccc(Br)c(C(=O)OCC(=O)NC2CCCCCCC2)c1
2.5 | -93% | COC(=O)c1c(NC(=O)c2ccc(S(=O)(=O)N3CC(C)OC(C)C3)cc2)sc2c1CCN(C)C2 (stereo unspecified)
5.9 | 24% | CCOC(=O)N1CCN(C2=C(NS(=O)(=O)c3ccc(Br)cc3)C(=O)c3ccccc3C2=O)CC1
2.1 | -12% | CC1CCCN(C(=O)c2cccc(S(=O)(=O)NCc3ccccc3)c2)C1 (stereo unspecified)
0.3 | -1% | Cc1cccc(NC(=O)COC(=O)c2nn(-c3ccccc3C(F)(F)F)cc2O)c1C
2.5 | -1% | CC1(c2ccc3c(c2)OCCCO3)NC(=O)N(CC(=O)NCCc2ccc(F)cc2)C1=O (stereo unspecified)
1.1 | 0% | O=S1(=O)N[C@@H](c2ccccc2)COc2cc(Br)ccc21

# (cont.)
HNF4A DNA FP | Vif A3G | mol
2.1 | 4% | COc1ccc(C(CC(=O)c2ccc3c(c2)OCO3)C(=O)O)cc1OC (stereo unspecified)
-1.3 | 2% | C[C@H](CO)N1C[C@H](C)[C@@H](CN(C)C(=O)Nc2ccc(F)cc2)OCc2cnnn2CCCC1=O
0.2 | 11% | CNC(=O)C[C@H]1C(=O)N(Cc2ccccc2)C[C@@H]1CSC
1.2 | -41% | CC(=O)Nc1ccc(S(=O)(=O)c2ccnc3cc(Cl)ccc23)cc1
-2.7 | 9% | CCCCCC(=O)N1C[C@@H](n2cc(COC(=O)c3ccccc3)nn2)[C@H](O)C[C@@H]1c1ccccc1
0.1 | -4% | CCc1ccc(C(=O)OCC(=O)Nc2c(C)n(C)n(-c3ccccc3)c2=O)cc1
-0.4 | -10% | O=C1CCN(CCCN2CCC(=O)NC2=S)C(=S)N1
-0.5 | 6% | CC1C(=O)N(Cc2cn(Cc3ccco3)nn2)CCS(=O)(=O)N1Cc1ccc(-c2cccc(CO)c2)cc1 (stereo unspecified)
0.9 | 3% | Cc1ccc(OCC(=O)OCC(=O)NC2CCS(=O)(=O)C2)cc1C (stereo unspecified)
-0.8 | 2% | O=[N+]([O-])c1ccc2oc(/C=C/c3ccc(O)cc3)nc2c1
-2.4 | 0% | CCCc1ccc(S(=O)(=O)N2CCN(C(=O)CN3C(=O)NC(C)(C4CC4)C3=O)CC2)cc1 (stereo unspecified)
1.2 | -1% | CCN(CC)C(=O)C1=C(C)N(Cc2ccc(F)cc2)C(=O)C(CC(=O)NCCCCc2ccccc2)C1 (stereo unspecified)
0.8 | -5% | Cc1ccc(S(=O)(=O)N(C)C[C@H]2Oc3ncc(Br)cc3C(=O)N([C@H](C)CO)C[C@@H]2C)cc1
-3.4 | 0% | CN(C(=O)COC(=O)/C=C/c1ccccc1)C1CCS(=O)(=O)C1 (stereo unspecified)
0.2 | 12% | C[C@@H]1CN([C@@H](C)CO)C(=O)c2cc(C#Cc3cccc(F)c3)cnc2O[C@H]1CN(C)C(=O)C1CCCCC1
-0.2 | 0% | CCN(CC)C(=O)C1=C(C)N(CCCOC)C(=O)C(CC(=O)NC2CCCC2)C1 (stereo unspecified)
-3.2 | 2% | COc1ccccc1C(=O)NC(=O)COC(=O)c1cnccn1
1.0 | -2% | COc1ncnc2c1ncn2CCCN1CCN(Cc2cccc3ccccc23)CC1
0.1 | -7% | C[C@@H]1CNC(=O)c2c(C(=O)N[C@@H](Cc3c[nH]c4ccccc34)C(=O)OC(C)(C)C)ncn21
6.3 | 9% | CCOC(=O)CCCCCC(=O)Nc1ccc2c(c1)C(=O)N([C@H](C)CO)C[C@H](C)[C@@H](CN(C)S(C)(=O)=O)OCCCC[C@@H](C)O2

# New compounds follow:
HNF4A DNA FP | Vif A3G | mol
-4.6 | 9% | CNC(=O)C[C@H]1C(=O)N(C2CCCCC2)C[C@@H]1C
2.1 | -3% | COc1cccc(CN(C)C[C@@H]2OCc3cnnn3CCCC(=O)N([C@@H](C)CO)C[C@H]2C)c1
4.7 | -2% | CC(C)NC(=O)N(C)C[C@@H]1OCc2cn(nn2)CCCC(=O)N([C@H](C)CO)C[C@H]1C
-3.5 | 4% | CCN(CC)C(=O)C1=C(C)N(CCCOC)C(=O)C(CC(=O)NCCN2CCOCC2)C1 (stereo unspecified)
-2.4 | -5% | Cc1ccc(SCc2c(C(=O)N/N=C/c3ccc(C)o3)nnn2-c2nonc2N)cc1
1.4 | 1% | Cc1ccc2nc(-c3ccc(Br)cc3)cc(C(=O)NCC3CCCO3)c2c1 (stereo unspecified)
0.0 | 4% | O=C(/C=C/c1cccc([N+](=O)[O-])c1)OCC(=O)N1CCCCC1
-3.5 | -1% | [O-][n+]1ccc(CC(O)(C(F)(F)F)C(F)(F)F)cc1
-2.0 | 0% | COc1cc(N(CCCn2cnc3c(SC)ncnc32)CCCn2cnc3c(SC)ncnc32)cc(OC)c1OC
-3.6 | -5% | Cc1noc(NS(=O)(=O)c2ccc(NC(=O)/C=C/c3ccc(Cl)cc3Cl)cc2)c1C
2.1 | 4% | O=C(c1ccc(N2C(=O)CCC2=O)cc1)N1CCCSC1=Nc1ccccc1
2.1 | -2% | O=C(COC(=O)c1cc(S(=O)(=O)N2CCOCC2)ccc1Cl)Nc1ccc(Cl)cn1
-0.1 | 2% | COc1cc2ccc(C(=O)O)cc2cc1OC
-3.2 | 7% | C[C@@H]1CN([C@@H](C)CO)C(=O)c2cc(Br)cnc2O[C@H]1CN(C)S(=O)(=O)c1cccs1
3.3 | 3% | CCN1C(=O)[C@H]2[C@@H](c3ccc(OC)cc3)N[C@]3(CCCN(Cc4cccn4C)C3=O)[C@H]2C1=O
-1.5 | 4% | COc1ccc(NC(=O)COC(=O)c2c(NC(C)=O)sc(C)c2C)cc1
-1.5 | -9% | COCCN(C(=O)COC(=O)C1CC(=O)N(c2ccc(C)cc2)C1)c1c(N)n(Cc2ccccc2)c(=O)[nH]c1=O (stereo unspecified)
-4.2 | 2% | O=c1ccc2c(ccc3ncccc32)o1
1.7 | 5% | Cn1c(=O)c2cccnc2c(=O)n1C
1.4 | 3% | O=c1c2ccccc2sn1-c1cccc(Cl)c1

# 14 structures from above, arranged by SMILES length, high to low:
HNF4A DNA FP | Vif A3G | mol
0.5 | -1% | CC(C)NC(=O)Nc1ccc2c(c1)C(=O)N([C@@H](C)CO)C[C@@H](C)[C@H](CN(C)Cc1ccccc1)OCCCC[C@H](C)O2
3.3 | 3% | CCN1C(=O)[C@H]2[C@@H](c3ccc(OC)cc3)N[C@]3(CCCN(Cc4cccn4C)C3=O)[C@H]2C1=O
0.8 | -5% | Cc1ccc(S(=O)(=O)N(C)C[C@H]2Oc3ncc(Br)cc3C(=O)N([C@H](C)CO)C[C@@H]2C)cc1
-0.5 | 6% | CC1C(=O)N(Cc2cn(Cc3ccco3)nn2)CCS(=O)(=O)N1Cc1ccc(-c2cccc(CO)c2)cc1 (stereo unspecified)
2.1 | -3% | COc1cccc(CN(C)C[C@@H]2OCc3cnnn3CCCC(=O)N([C@@H](C)CO)C[C@H]2C)c1
-2.4 | 0% | CCCc1ccc(S(=O)(=O)N2CCN(C(=O)CN3C(=O)NC(C)(C4CC4)C3=O)CC2)cc1 (stereo unspecified)
2.5 | -4% | COc1ccc([C@H]2CN(Cc3ccccc3)C(=O)[C@@H]2CC(=O)Nc2ccccc2)cc1
2.1 | -2% | O=C(COC(=O)c1cc(S(=O)(=O)N2CCOCC2)ccc1Cl)Nc1ccc(Cl)cn1
0.1 | -4% | CCc1ccc(C(=O)OCC(=O)Nc2c(C)n(C)n(-c3ccccc3)c2=O)cc1
2.1 | 4% | O=C(c1ccc(N2C(=O)CCC2=O)cc1)N1CCCSC1=Nc1ccccc1
2.1 | 4% | COc1ccc(C(CC(=O)c2ccc3c(c2)OCO3)C(=O)O)cc1OC (stereo unspecified)
0.9 | 3% | Cc1ccc(OCC(=O)OCC(=O)NC2CCS(=O)(=O)C2)cc1C (stereo unspecified)
0.0 | -4% | COc1ccc(Br)c(C(=O)OCC(=O)NC2CCCCCCC2)c1
8.1 | -22% | Nc1nc(N)c2cc(Sc3ccc(Cl)cc3)ccc2n1

# Next results follow.
HNF4A DNA FP | Vif A3G | mol
0.4 | -3% | CSc1ncnc2c1ncn2CCCN(C)Cc1ccco1
-0.8 | -2% | C[C@H]1CN([C@@H](C)CO)S(=O)(=O)c2ccc(Br)cc2O[C@H]1CN(C)S(=O)(=O)c1ccccc1
2.1 | 2% | NS(=O)(=O)c1ccc(CNC(=O)c2cc(S(=O)(=O)N3CCOCC3)ccc2N2CCCC2)cc1
-3.4 | -1% | C[C@H](CO)N1C[C@H](C)[C@H](CN(C)C(=O)c2ccncc2)OCc2ccccc2-c2c(n(C)c3ccccc23)C1=O
0.3 | -2% | O=C(COC(=O)c1cccc(S(=O)(=O)N2CCCC2)c1)Nc1cccc(Br)c1
1.9 | -5% | CN[C@H]1C[C@H]2c3[nH]c4ccccc4c3CCN2C(=O)[C@H]1[C@H](C)O
-2.1 | 0% | COc1cc(Cl)c(C)cc1NC(=O)c1ccccc1NC(=O)CN1CCN(C(C)=O)CC1
13 | -2% | O=C(O)c1ccc2c(c1)S(=O)(=O)c1cc(N3CCN(c4ncccn4)CC3)ccc1C2=O
5.1 | 2% | CCc1ncc(CO)n1Cc1cccc2ccccc12
0.9 | 4% | COc1ccccc1N1CCN(c2ccc3c(c2)S(=O)(=O)c2cccc(C(=O)NCC4CC4)c2C3=O)CC1
0.2 | -9% | C#CCN(C[C@H]1[C@H](OC(=O)NCCCCCC)[C@H](OC(=O)NCCCCCC)C[C@@H](C(=O)OC)[C@H]1C(=O)OC)S(=O)(=O)c1ccc(C)cc1
0.5 | -7% | COc1ccc(CN2CCNC(=O)C2CC(=O)N(C)C2CCCCC2)cc1OC (stereo unspecified)
-4.8 | 2% | Cc1ccc(S(=O)(=O)N2CC3(O)CN(C(=O)OC(C)C)N(C(=O)OC(C)C)CC3(OC(=O)Nc3cccs3)C2)cc1 (stereo unspecified)
1.0 | -4% | COc1ccc(CC(=O)O/N=C(\N)c2ccncc2)cc1OC
1.2 | -3% | CC(C)(C)S(=O)N1Cc2cc(CO)ccc2[C@H]1CCO (stereo partly specified)
-1.1 | -5% | O=C(COC(=O)Cc1ccc(Cl)c(Cl)c1)NCCc1ccccc1
-1.6 | 0% | Cc1c(NC(=O)c2cccc(NC(=O)C(C)Oc3ccccc3)c2)c(=O)n(-c2ccccc2)n1C (stereo unspecified)
0.1 | -3% | CC1C=CC(C)C(C(=O)c2ccccc2)C1C(=O)c1ccccc1 (stereo unspecified)
4.1 | -2% | C[C@H](CO)N1C[C@H](C)[C@@H](CN(C)Cc2cncnc2)Oc2cc(Br)ccc2S1(=O)=O
-1.3 | 4% | O=S(=O)(Nc1ccc2c3c(cccc13)CC2)c1ccccc1

# Continuation.
HNF4A DNA FP | Vif A3G | mol
0.5 | 2% | C[C@H]1CN([C@@H](C)CO)C(=O)c2cc(Br)cnc2O[C@H]1CN(C)C(=O)c1ccc2c(c1)OCO2
3.0 | 0% | c1ccc(C2=NCCCO2)cc1
1.5 | -4% | C[C@H]1CN([C@@H](C)CO)C(=O)CCCn2nncc2CO[C@@H]1CN(C)Cc1ccc(-c2ccccc2)cc1
-0.6 | -9% | CC(C)(C)c1cc(NC(=O)COC(=O)c2ccccc2)n(-c2ccccc2)n1
0.1 | -8% | COc1ccc(CC(=O)NCc2ccccc2F)cc1S(=O)(=O)N1CCOCC1
0.4 | -9% | O=S(=O)(c1ccccc1)C(Br)S(=O)(=O)c1ccccc1
5.2 | -9% | COC(=O)c1c(C)[nH]c(C(=O)COC(=O)CCc2ccc(OC)c(OC)c2)c1C

# Screening data from PubChem.
